D2 agonist = human D2 receptor agonism in beta-arrestin assay | activation, % (concentration not given with the values) | AID 624465 | P14416 | DiscoveRx PathHunter D2 beta-arrestin, luminescence, 90 min; 100% = 57 uM dopamine signal | 360,000 tested, 0.084% active; in the data active = activation above about 40%; inconclusive = about 15% to 40%; inactive = below about 15%; also: compound concentration not given in the record; the text of the record calls up to 30% inactive
Target sequence (P14416 whole entry, looked up): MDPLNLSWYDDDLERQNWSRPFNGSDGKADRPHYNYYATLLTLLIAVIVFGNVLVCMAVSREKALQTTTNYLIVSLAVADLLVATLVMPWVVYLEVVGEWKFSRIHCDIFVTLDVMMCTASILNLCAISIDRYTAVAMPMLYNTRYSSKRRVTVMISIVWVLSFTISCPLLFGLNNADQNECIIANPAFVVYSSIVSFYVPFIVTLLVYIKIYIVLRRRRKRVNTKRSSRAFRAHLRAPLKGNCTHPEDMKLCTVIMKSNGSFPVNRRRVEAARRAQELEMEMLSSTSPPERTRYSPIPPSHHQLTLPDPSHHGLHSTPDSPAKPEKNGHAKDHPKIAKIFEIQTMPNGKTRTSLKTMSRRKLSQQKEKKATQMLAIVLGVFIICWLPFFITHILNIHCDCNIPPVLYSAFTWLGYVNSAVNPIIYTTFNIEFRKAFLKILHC
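DiscoveRx PathHunter D2 beta-arrestin cells (2,100/well) attached overnight, then compound-stimulated 90 min at 37 C in HBSS/10 mM HEPES/0.1% Tween-20 buffer; beta-galactosidase complementation read by luminescence after 1 h at ambient temperature. Dopamine 57 uM final (EC100) as control.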
ClpP mod = qHTS Assay for Activators of ClpP. ATP-dependent Clp protease proteolytic subunit (Bacillus subtilis (strain 168)), P80244. purified B. subtilis ClpP, FRET peptide cleavage, 20 min. Potency, µM (highest dose often 57.5 µM), inactives show at the top dose activity change, negative = active. 340,000 tested, 1.9% active. AID 651965, 2013; active = well fitted falling curve with a large enough effect; inconclusive = small, poorly fitted or top-dose-only effect; inactive = no such curve, though single readings can be large or run the other way; also: potency is read from the fitted curve at half-maximal effect; the source files actives as falling curves though it sought activators and does not explain the sign; nearly all actives have a fitted effect of over 65% in size; many hits overshoot -100%
Target sequence (P80244 whole entry, looked up): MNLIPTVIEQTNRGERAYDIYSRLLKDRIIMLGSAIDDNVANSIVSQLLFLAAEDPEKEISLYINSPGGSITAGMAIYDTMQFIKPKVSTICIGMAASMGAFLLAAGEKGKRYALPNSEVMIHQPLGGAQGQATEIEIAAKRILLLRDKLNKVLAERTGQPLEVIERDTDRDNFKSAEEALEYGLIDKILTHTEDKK
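Buffer: 100 mM Tris/HCl pH8, 100 mM KCl, 0.05% low protease BSA, 2.5% glycerol, 0.01% Tween-20. ClpP 10 microg/mL final; 20 min RT; delta FRET normalized to ADEP and DMSO controls.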
gsp agonist = activates gsp, the McCune-Albright syndrome mutation | gsp mutant cells, cAMP HTRF, 30 min; control for the full effect not named in the record | Potency, µM (doses to about 76.9 µM), without a hit: at the highest dose activation (cAMP increase), actives largely listed as activators | 340,000 tested, 0.13% active; active = well fitted activation curve with a large enough effect; inconclusive = small, poorly fitted or top-dose-only effect, or another doubt; inactive = no such curve, though single readings can be large or run the other way; cell line not stated here;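 also: phosphodiesterase inhibitor Ro 20-1724 added with compounds to block cAMP breakdown; potency is read from the fitted curve at half-maximal effect; nearly all actives have a fitted effect of over 60% in size; about a fifth of the inactives were tested at one dose only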
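Cells stably selected in G418 were plated at 2000/well, grown 16-24 hr, then given compounds in DMSO with the PDE inhibitor […] (300 uM solution added) for 30 min at 37C; cAMP was read by HTRF.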
Menin-MLL FL inh = inhibitors of human menin-MLL interaction, wild-type MLL peptide. Fluorescence polarization, fluorescein-MLL peptide displacement from menin. FP activity change, % at 61.4 µM. 290,000 tested, under 10 active; inconclusive = falling polarisation curve, or a change in total fluorescence; inactive = total fluorescence flat and polarisation flat or rising; no compound was filed as active; the % refers to the polarisation; negative = inhibition;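 also: % of control where 0% means no effect; inhibitors lower the polarisation; unlabelled MLL peptide was the positive control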
PINK1 modulator = PINK1 expression modulation; PINK1 immunofluorescence, high-content cytometry, 24 h; Potency, µM (top dose mostly 76.6 µM), for the others: at the highest dose activation (PINK1 increase), hits mostly activators; 410,000 tested, 0.2% active; AID 624263; active = well fitted activation curve with a large enough effect; inconclusive = small, poorly fitted or top-dose-only effect; inactive = flat fitted curve, though single readings scatter; cell line not stated here;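 also: potency is read from the fitted curve at half-maximal effect; % of control where 0% means no effect; nearly all actives have a fitted effect of over 65% in size; a mitochondrial uncoupler was the plate control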
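PINK1 protein level read as immunofluorescence by microplate cytometer in a fixed, stained stable cell line after 24 h exposure to five compound concentrations, with CCCP as control.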
gsp antagonist = gsp mutant antagonism; 340,000 tested, 0.4% active; gsp-mutant cells, cAMP HTRF, 30 min; control for the full effect not named in the record; Potency, µM (series often up to 76.9 µM), without a hit: top-dose activity change, negative = inhibition, actives largely listed as inhibitors; active = falling curve of any shape with a large fitted effect; inconclusive = falling curve, mostly with a smaller effect; inactive = flat or rising curve; cell line not stated here;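 also: intracellular cAMP measured with PDE inhibitor Ro 20-1724 present during compound exposure; potency is read from the fitted curve at half-maximal effect; % is scaled to controls: 0 for no effect and ±100 for the full control effect; nearly all actives have a fitted effect of over 65% in size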
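HTRF cAMP measurement after 30 min RT detection following 30 min, 37C compound treatment alongside […] (added as 300 uM solution) in G418-selected cells seeded at 2000/well and grown 16–24 h.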
Sfp inh = blocks B. subtilis Sfp PPTase activity; Biochemical Sfp PPTase activity, qHTS; AID 1490; Potency, µM, for inactives: max response, negative = inhibition, most hits filed as inhibitors; 310,000 tested, 3.5% active; Q9F4F7; active = well fitted inhibition curve with a large enough effect; inconclusive = small, poorly fitted or top-dose-only effect, or another doubt; inactive = no such curve, though single readings can be large or run the other way;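 also: the enzyme is Sfp with the accession as filed and its product quenches rhodamine fluorescence; potency is read from the fitted curve at half-maximal effect; 0% = enzyme reaction without inhibitor and -100% = no enzyme wells; top concentration of the series not given in the record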
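Fluorescence-quenching assay: 15 nM Sfp-PPTase preincubated 15 min at room temperature with compound, then 5 uM rhodamine-CoA and 12.5 uM BHQ-2-labelled YbbR peptide added. Fluorescence (ex 525/em 598 nm) read at start and after 30 min; difference gives rate.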
An asterisk follows results filed as active; ? = inconclusive; · = no result given; & = joins results of further samples; [ ] = another dose, or the depositor's remark.

canonical_smiles	D2 agonist	ClpP mod	gsp agonist	Menin-MLL FL inh	PINK1 modulator	gsp antagonist	Sfp inh
CCC1=C(OC(=O)N(CC)CC)N2C(=O)OC(=NCC3CC3)[C@]2(Cc2ccccc2)[C@H]2C1=CC[C@H]1C(=O)N(C)C(=O)[C@H]12	-2.9	-1.4%	·	-6.0&1.1	1.8%	?	8.9%&6.4%
COc1ccc(OCCCC(=O)Nc2cc(S(=O)(=O)N3CCCCC3)ccc2OC)cc1	-1.1	-1.5%	-25.9%	·	-0.4%	-14.4%	·
CNC(=O)CSc1nnc(COc2ccc([N+](=O)[O-])cc2)n1C	-1.9	·	2.0%[15.4 µM]	0.5	-0.5%	-20.7%	-18.2%
Brc1cc(/C=N/n2cnnc2)oc1Br	-1.1	-0.6%	-21.9%	-0.8	-0.9%	?	28.4%
CCOC(=O)C1=C(C)OC(N)=C(C#N)C1c1cc(C)sc1C (stereo not drawn)	-4.3	-0.2%	-17.6%	2.1	1.9%	-9.2%	5.1%
CCCc1cc(C(=O)Cc2ccc(C(=O)OCC)o2)c(O)cc1O	-2.0	-3.7%	-52.2%[inhibitor]	?	-0.8%	-2.6%	-11.7%
COc1ccc(S(=O)(=O)N(C)C[C@H]2Oc3c(NC(=O)Nc4ccc5c(c4)OCO5)cccc3C(=O)N([C@H](C)CO)C[C@@H]2C)cc1	-0.1	-0.9%	-7.2%	·	1.3%	-27.7%	·
Cc1ccc(NC(=O)CSCC(=O)N2c3ccccc3CCc3ccccc32)cc1	-3.8	0.2%	25.7%	0.6	·	-9.5%	1.5%
O=C1NCCCC1C(=O)Nc1ccccn1 (stereo not drawn)	-1.6	0.2%	-6.0%	2.2	0.4%	8.5%	18.9%
CCNC(=S)NCc1ccc(F)cc1	0.4	-1.4%	13.1%	3.1	-1.6%	4.7%	15.1%
CC(=O)N/C(=C/c1ccc2c(c1)OCO2)C(=O)NCc1ccccc1	-1.3	1.4%	-3.1%[15.4 µM]	1.5	1.2%	8.2%	3.1%
CSCCC(NC(=O)c1ccccc1Br)C(=O)NNC(=O)c1ccncc1 (stereo not drawn)	-1.4	-1.5%	-6.7%	·	-0.7%	17.0%	·
Cc1noc(C)c1CSCC(=O)Nc1cc(Cl)ccc1N1CCCCC1	0.8	25.1µM*	5.5%[15.4 µM]	·	-0.2%	-21.0%	·
COc1ccccc1-n1nc(C(=O)NCc2ccco2)c2ccccc2c1=O	0.2	-2.6%	-0.1%	2.0	-0.2%	-2.4%	7.1%
CC(C)(C)NNC(=S)Nc1ccc(S(=O)(=O)N2CCOCC2)cc1	4.4	·	15.8%	-0.3	2.7%	8.4%	?
CCCCN(C(=O)c1ccco1)c1nnc(-c2cc(OC)c(OC)c(OC)c2)s1	1.7	?	-48.3%[inhibitor]	0.9	14.0%	44.3%[activator]	24.2%
CC(CN1CCCCC1)NC(=O)c1cc(-c2ccccn2)nc2ccc(Cl)cc12 (stereo not drawn)	-1.6	-1.1%	-9.0%[15.4 µM]	-7.3	0.6%	17.7%	16.8%
CC(C)(C)c1[nH]ncc1[N+](=O)[O-]	-1.2	·	7.3%[15.4 µM]	1.9	7.6%	14.7%	14.7%
O=C(N/N=C/c1ccco1)C1CC1(c1ccccc1)c1ccccc1 (stereo not drawn)	-3.1	-2.1%	-26.2%	2.4	-1.0%	2.4%	5.0%
O=C(O)C1Nc2c(O)cc(Cl)c([N+](=O)[O-])c2C2C=CCC12 (stereo not drawn)	-3.5	-1.0%	-49.8%[inhibitor]	?	0.9%	-10.8%	56.2µM*
Cc1ccc(CNC(=O)c2cc(S(=O)(=O)N3CCOCC3)cn2C)cc1	-0.4	-3.2%	10.3%	0.4	0.9%	-1.7%	8.0%
COc1ccc(-c2nc3cnc(Nc4cccc(OC)c4)nc3n(C)c2=O)cc1	·	·	·	0.3	6.4%	·	9.6%
C=CCC[C@H](Cc1ccc(F)cc1)C(=O)OC[C@H](Cc1c[nH]c2ccccc12)NC(=O)[C@@H](CC=C)CC(=O)N[C@@H](CO)Cc1ccccc1	-8.9	0.8%	-15.4%	·	-1.3%	7.0%	·
CCOc1ccc(N2CC(NS(=O)(=O)c3cccnc3)CC2=O)cc1 (stereo not drawn)	2.4	0.3%	-8.0%	·	-1.9%	11.2%	·
COc1cccc(-c2cnc(C(O)c3cccc(OC)c3)[nH]2)c1 (stereo not drawn)	1.3	-1.9%	·	·	-1.1%	·	·
CC(C)(C)c1ccc(C(=O)NC(=S)NCc2ccco2)cc1	-3.8	0.9%	3.4%	·	-0.7%	-9.4%	5.6%
CCCS(=O)(=O)c1c(S(=O)(=O)CCC)c2c(N)cccn2c1C(=O)c1ccccc1	-3.2	-2.9%	-20.0%	?	0.6%[38.3 µM]	-27.1%	4.3%
CCOC(=O)c1c(S(=O)(=O)NCC(=O)Nc2cccc(C)c2)c(C)n(C)c1C	1.3	0.3%	-17.9%	·	-1.1%	9.8%	10.2%
O=C1CCCc2c1nn(-c1ccccc1)[n+]2[O-]	0.5	0.3%	-23.6%	3.1	2.9%[38.3 µM]	2.2%	8.0%
COc1ccc(OCCOC(=O)CNC(=O)c2ccc(C)cc2)cc1	-0.3	-1.5%	-8.8%	·	-1.7%	-0.8%	·
O=C(O)c1cccc(NC(=O)c2cn(-c3ccccc3)nc2-c2ccc([N+](=O)[O-])cc2)c1	-5.6	-2.9%	-1.5%	0.3	1.4%	-13.4%	0.4%
CN(Cc1ccccc1)C(=O)c1ccc(NC(=O)C2CCN(C(=O)OC(C)(C)C)CC2)cc1	-1.5	0.5%	-17.0%	·	1.6%	-16.7%	·
CC(=O)NC(C)C(=O)OCc1ccc(Cl)cc1Cl (stereo not drawn)	-1.2	0.7%	5.0%	0.3	-3.6%	6.0%	-4.1%
CCOC(=O)c1sc(NC(=O)/C=C/c2cnn(C)c2C)c(C(=O)OC(C)C)c1C	0.5	?	?	-1.1	6.1%[38.3 µM]	-3.3%	5.0%
COc1ccc(N(CC(=O)Nc2ccccc2C(=O)N2CCOCC2)S(=O)(=O)c2ccc(F)cc2)cc1	1.3	-1.3%	-21.7%	0.5	0.3%	8.2%	-1.1%
CCOC(=O)c1ccc[n+](C(C)C(=O)c2ccc(-c3ccccc3)cc2)c1 (stereo not drawn)	-5.4	-10.1%	5.9%	?	4.0%	-2.4%	-16.2%
COc1ccc(-c2csc(NC(=O)CCS(=O)(=O)c3ccccc3)n2)c(OC)c1	-0.4	3.6%	-9.3%	0.2	-1.0%	-8.7%	13.6%
CN(C)/C=C/c1c(C#N)c(=O)ncn1Cc1ccccc1	-1.2	-0.6%	-38.2%[inhibitor]	2.4	·	2.3%	12.2%
C[C@H](CO)N1C[C@H](C)[C@@H](CN(C)S(C)(=O)=O)Oc2c(NC(=O)C3CCCCC3)cccc2C1=O	-1.2	-1.3%	·	·	0.2%	4.0%	·
O=[N+]([O-])c1cc(C(F)(F)F)ccc1NCCc1ccncc1	-5.5	·	37.1%	5.4	0.9%	3.0%	6.1%
O=C(Nc1cccc(F)c1)N1CCC2(CC1)CCN(S(=O)(=O)c1ccccc1)CC2	·	·	·	3.2	1.3%	·	27.6%
COc1cc(OC)cc(-c2cc3nc(C4CCN(C(=O)OC(C)(C)C)CC4)cc(=O)n3[nH]2)c1	-2.2	25.1µM*	-7.9%	0.1	4.8%[38.3 µM]	-19.9%	-3.0%
CCOC(=O)c1ccn(CSc2c(F)c(F)cc(F)c2F)n1	-2.8	-1.0%	?	·	0.2%	5.8%	·
COc1cccc(CN2CCC2(C)C(=O)Nc2cccc3cccnc23)c1F (stereo not drawn)	-2.5	28.2µM*	·	·	1.1%	·	·
CC1CCCCC1NC(=O)COC(=O)c1ccccc1NC(=O)c1ccco1 (stereo not drawn)	-1.2	-11.2%	-32.9%[inhibitor]	16.9	-0.8%	3.3%	-1.4%
COc1ccc(NC(=O)CN(C)C(=O)c2ccc(N3CCOCC3)c([N+](=O)[O-])c2)cc1	-1.1	-1.1%	-27.2%	·	-0.6%	1.6%	·
COc1ccc(Cn2nc(C)n(N(C)c3ncc(C(F)(F)F)cc3Cl)c2=O)cc1	-4.1	-0.1%	1.1%	6.2	5.1%	-8.9%	0.4%
CN(C)C(=O)c1cccc(-c2cc(NC=O)c3ncc(-c4ccc(F)c(Cl)c4)n3c2)c1	4.3	-23.9%	·	·	-0.2%	·	·
COc1cc(NS(=O)(=O)c2ccc(N/C=C(\C#N)c3nc4cc(Cl)ccc4o3)cc2)nc(OC)n1	-1.1	-1.2%	0.0%	7.2	-3.9%	?	0.1%
COc1ccccc1NC(=S)N(Cc1ccc(Cl)cc1)CC1CCC(C(=O)O)CC1 (stereo not drawn)	-0.2	0.8%	-1.2%	3.0	-3.0%	?	13.0%
CCOC(=O)c1sc(NC(=O)Cn2nnc3sc4c(c3c2=O)CCCC4)nc1C	0.5	-1.8%	-22.1%	10.4	4.7%[38.3 µM]	-9.9%	-4.5%
O=C(O)CN1CCN(Cc2ccc(F)cc2)C1=O	-4.0	·	-27.8%	-3.2	1.1%	11.4%	16.0%
COc1ccc(C(C)(C)C)cc1NC(=O)c1ccccc1-n1cnnn1	-5.0	-1.2%	3.8%	·	0.7%	5.2%	·
O=C(NCCOc1ccccc1)c1cc(S(=O)(=O)N2CCOCC2)ccc1F	-1.4	2.0%	0.9%	·	1.0%	10.3%	5.2%
Cc1cc(C)cc(-n2ccnc2SCC(=O)O)c1	-3.6	28.2µM*	-2.3%[15.4 µM]	1.9	2.6%	-9.8%	-4.5%
Cn1c(C(=O)O)c(CC(=O)Nc2ccc(F)cc2F)c2ccccc21	-3.1	-2.4%	2.6%[15.4 µM]	1.2	-1.9%	4.7%	-4.6%
O=C(CCCc1ccccc1)NC12CC3CC(CC(C3)C1)C2	5.8	-2.5%	-17.9%	-0.5	0.1%	-18.8%	-3.0%

Compound activity from PubChem.
